D2 ag – Beta-Arrestin HTS for Positive Allosteric Modulators of the Human D2 Dopamine Receptor: Agonists; DiscoveRx PathHunter D2 beta-arrestin, luminescence, 90 min; 100% = 57 uM dopamine signal; hit rate 0.084% among 360,000; AID 624465, 2012; activation, % (concentration not given with the values); D(2) dopamine receptor (Homo sapiens), P14416; in the data active = activation above about 40%; inconclusive = about 15% to 40%; inactive = below about 15%; further: compound concentration not given in the record; the text of the record calls up to 30% inactive
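Agonist mode: compounds alone added to overnight-plated D2 PathHunter cells for 90 min at 37 C, with 57 uM final dopamine (EC100) defining full response. Beta-arrestin recruitment detected by chemiluminescent reagent, read after 1 h at ambient temperature.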
TRPML1 ag – qHTS for Agonists of the Human Mucolipin Transient Receptor Potential 1 (TRPML1) | hit rate 0.12% among 410,000 | AID 624414, 2012 | Mucolipin-1 (Homo sapiens), Q9GZU1 | activation, % (test concentration not listed) | TRPML1-expressing cells, Ca2+ dye fluorescence, FDSS; host cell line not named in the record; reference of the full effect not given here; in the data active = activation above about 50%; inconclusive = about 30% to 50%; inactive = below about 30%; further: 0% is about no effect; the text of the record puts the active cut at 80%
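Tet-induced TRPML1-DL cells, 1,500 per well, cultured overnight, were loaded with a no-wash Ca2+ dye for 45–90 min. Calcium fluorescence was recorded on the FDSS for 110 s after compound addition, before the EC80 agonist (4 uM 54-4) was added.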
Six1-Eya2 blk – qHTS Assay for Inhibitors of the Six1/Eya2 Interaction. Homeobox protein SIX1 (Homo sapiens) + Protein phosphatase EYA2 (Homo sapiens), …. AlphaScreen GST-Six1/His-Eya2 binding, biochemical; active compounds read low; control for the full effect not named in the record. activity change, % (no concentration beside the values). hit rate 0.56% among 360,000; in the data active = activity change below about -65%; inconclusive = about -30% to -65%; inactive = above about -30%; further: on the % scale 0 is the no-effect control and ±100 the full control effect
Target sequence (O00167 whole entry, looked up): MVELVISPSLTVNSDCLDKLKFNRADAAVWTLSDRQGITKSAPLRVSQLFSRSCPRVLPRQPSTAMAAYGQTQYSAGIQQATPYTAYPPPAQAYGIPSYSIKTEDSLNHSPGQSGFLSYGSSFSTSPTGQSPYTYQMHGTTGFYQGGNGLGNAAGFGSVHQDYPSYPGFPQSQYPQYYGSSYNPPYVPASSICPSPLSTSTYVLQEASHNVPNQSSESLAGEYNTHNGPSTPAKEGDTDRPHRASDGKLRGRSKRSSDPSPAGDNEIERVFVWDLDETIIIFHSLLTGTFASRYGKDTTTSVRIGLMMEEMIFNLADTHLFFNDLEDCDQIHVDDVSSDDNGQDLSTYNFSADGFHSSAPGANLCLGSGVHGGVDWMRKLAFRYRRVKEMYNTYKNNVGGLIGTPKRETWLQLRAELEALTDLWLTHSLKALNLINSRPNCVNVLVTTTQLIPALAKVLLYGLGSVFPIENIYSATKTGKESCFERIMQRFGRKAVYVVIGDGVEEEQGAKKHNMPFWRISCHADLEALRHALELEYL
Target sequence (Q15475 whole entry, looked up): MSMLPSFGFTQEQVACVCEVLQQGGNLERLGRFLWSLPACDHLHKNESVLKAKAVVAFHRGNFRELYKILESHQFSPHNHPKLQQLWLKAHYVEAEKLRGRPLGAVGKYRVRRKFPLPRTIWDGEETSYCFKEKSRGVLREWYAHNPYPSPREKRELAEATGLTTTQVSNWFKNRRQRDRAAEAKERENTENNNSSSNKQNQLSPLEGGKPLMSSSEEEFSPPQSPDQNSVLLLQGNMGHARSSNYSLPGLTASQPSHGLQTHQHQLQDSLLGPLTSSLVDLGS
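GST-Six1 + His-Eya2 (5X stock: 250/500 nM); Tris pH 8.0, 300 mM NaCl, 0.05% BSA, 0.02% Tween 20; GSH donor/Ni acceptor beads; 1 h 37 °C dark; AlphaScreen readout.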
D2 potentiator – Beta-Arrestin HTS for Positive Allosteric Modulators of the Human D2 Dopamine Receptor: Potentiators; D(2) dopamine receptor (Homo sapiens), P14416; DiscoveRx D2 beta-arrestin cells, luminescence, 90 min; 100% = 57 uM dopamine signal; potentiation, % (test concentration not listed); hit rate 0.23% among 360,000; AID 624464, 2012; active = potentiation of 50% or more; inconclusive = 30% to 50%; inactive = 30% or less;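 further: compound concentration not given in the record; tested on top of an EC20 dose of dopamine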
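PathHunter beta-arrestin assay in DiscoveRx D2 cells. Compounds were added with an EC20 of dopamine (50 nM final) for 90 min at 37 deg C. Luminescence was read 1 h after detection reagent, with 57 uM dopamine as the EC100 control.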
PINK1 modulator – A Quantitative High throughput Screen to Identify Chemical Modulators of PINK1 Expression | hit rate 0.2% among 410,000 | PINK1 immunofluorescence, high-content cytometry, 24 h | Potency, µM (top dose mostly 76.6 µM), for the others: at the highest dose activation (PINK1 increase), hits mostly activators; active = well fitted activation curve with a large enough effect; inconclusive = small, poorly fitted or top-dose-only effect; inactive = flat fitted curve, though single readings scatter; cell line not stated here;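 further: potency means the concentration at half of the fitted maximal effect; % of control where 0% means no effect; nearly all actives have a fitted effect of over 65% in size; a mitochondrial uncoupler was the plate control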
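Readout is PINK1 immunofluorescence, quantified alongside mitochondrial, cell and nuclear markers by laser-scanning microplate cytometry. Cells from a stable line were exposed to compound titrations (5 concentrations) for 24 hours, with CCCP controls.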
TRPML1 inh – qHTS for Inhibitors of the Human Mucolipin Transient Receptor Potential 1 (TRPML1); Mucolipin-1 (Homo sapiens), Q9GZU1; TRPML1-inducible cells, Ca2+ dye fluorescence, FDSS; active compounds read low; inhibition of EC80 agonist-evoked calcium signal; activity change, negative = inhibition, % (concentration not given with the values); hit rate 0.02% among 390,000; in the data active means activity change below about -50%; inconclusive means about -30% to -50%; inactive means above about -30%;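 further: stimulus is agonist 54-4 at its EC80 concentration; on the % scale 0 is the no-effect control and ±100 the full control effect; the text of the record puts the active cut at -80%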
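Calcium fluorescence in TRPML1-DL cells induced overnight with Tet: a 110 s read after compound pin addition, then a 110 s antagonist read after challenge with 54-4 at 4 uM final (EC80).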
* hit, by the source's call; u = inconclusive; x = no result given; & = joins results of further samples; [ ] = remark or other dose. Outcome played no part in choosing rows (roughly 1% active in at least one column).

structure | D2 ag | TRPML1 ag | Six1-Eya2 blk | D2 potentiator | PINK1 modulator | TRPML1 inh
CCOC(=O)C1=C(C)OC(N)=C(C#N)C1c1ccc(C)o1 (stereo unspecified) | -0.3 | 1.3 | 15.3 | -16.8 | x | 5.0
CCC[C@@H](CNC)NC[C@H](Cc1ccccc1)NCCCCc1ccccc1 | -2.4 | -0.5 | -4.1 | -15.5 | -0.9% | 7.3
Cc1c(OCC(=O)N2C[C@H]3C[C@@H](C2)c2cccc(=O)n2C3)ccc2c3c(c(=O)oc12)CCCC3 | -4.7 | x | -7.7 | -38.9 | -0.9% | x
COc1ccc(C(=O)Nc2ccnn2C2CCN(Cc3ccn[nH]3)CC2)cc1 | -1.4 | 0.0 | -1.2 | -10.7 | -1.1% | 14.4
O=C(CC1NC(=O)NC1=O)Nc1ccc(Cl)cc1 (stereo unspecified) | -1.0 | -0.4 | 2.9 | -15.2 | x | 1.6
COc1ccc(-c2ccc3c(c2)S(=O)(=O)c2cccc(C(=O)NCCOc4ccccc4)c2C3=O)cc1OC | -0.3 | -0.7 | 5.6 | 2.0 | 35.5µM* | -3.4
COc1ccc(CC(=O)Nc2ccc(-c3nc4ccccc4s3)c(C)c2)cc1 | x | 0.3 | x | x | 1.5% | 0.2
CC(CCc1ccccc1)NC(=O)c1ccccc1 (stereo unspecified) | -3.0 | -0.1 | 4.1 | -5.3 | -1.9% | 1.6
O=C(NCc1ccccn1)c1cc(-c2ccc(-c3ccccc3)cc2)nc2ccccc12 | -9.5 | 1.2 | -16.4 | -9.7 | 0.5% | 14.5
CCc1nnc(NC(=O)CCNC(=O)c2ccccc2Cl)s1 | -3.9 | -0.2 | 2.2 | -2.1 | -1.9% | 0.9
COc1ccc(N(CC(=O)Nc2ccc3c(c2)OCCO3)S(C)(=O)=O)c(OC)c1 | 0.5 | -0.6 | 2.4 | -5.9 | -1.1% | -5.6
CCCCN(C(=O)c1cccc(S(=O)(=O)N2CCCCC2)c1)C1CCS(=O)(=O)C1 (stereo unspecified) | 1.6 | 0.4&1.9 | 1.9 | 4.8 | -0.3%&-4.1% | -3.1&-8.5
COc1cc(Cl)c(C)cc1N1C(=O)CN(Cc2ccccc2)C1=S | -6.3 | 3.9 | -7.3 | -9.2 | 0.7% | -1.5
O=C(c1cccc(C(F)(F)F)c1)C1CCCN(Cc2cccn2-c2ncccn2)C1 (stereo unspecified) | -0.3 | 0.6 | -15.2 | -7.2 | 1.5% | 18.9
CCN(c1ccccc1)S(=O)(=O)c1ccc(OC)c(NC(=O)Cc2ccc(F)cc2)c1 | 8.3 | 1.6 | -1.3 | 3.1 | 2.9% | 14.7
CC(=O)c1cccc(NC(=O)CN2C(=O)c3cccnc3Oc3ccc(Cl)cc32)c1 | 9.5 | 0.1 | 1.5 | -5.6 | -0.5% | 37.6
Cc1ccc(N(Cc2ccccc2)C(=O)c2ccc(S(=O)(=O)N3CCOCC3)cc2)cc1 | 3.6 | 1.4 | -2.2 | 20.2 | -0.5% | 23.6
O/N=C/c1cn(-c2ccccc2)nc1-c1ccccc1 | 0.5 | 4.3 | -3.1 | -2.8 | 1.4% | -5.5
O=C(CS(=O)(=O)c1ccccc1)Nc1ccc(S(=O)(=O)Nc2ncccn2)cc1 | 0.7 | -0.7 | -0.3 | -5.3 | -0.8% | 31.4
CCCn1c(SCC(=O)c2c(C)[nH]c(C)c2C(=O)OCC)nc2ccccc21 | -0.2 | 3.1 | -18.2 | -8.2 | -0.2% | 14.9
CCCC(=O)N(Cc1cc(=O)[nH]c2ccccc12)c1ccc(OC)cc1 | -4.8 | 1.5 | -8.2 | -6.8 | 0.8% | -16.9
Cc1ccc(S(=O)(=O)C2(C(=O)N3CCCCC3C)CC2)cc1 (stereo unspecified) | -1.9 | -0.2 | 1.5 | -1.8 | 3.3%[38.3 µM] | -8.8
CCOC(=O)c1nc(Nc2cc(C)cc(C)c2)c2ccccc2n1 | -2.4 | 2.0 | 1.0 | -7.5 | -1.7% | 4.1
COc1ccc(-c2sc3cc(OC)c(OC)cc3c2-c2ccc(O)cc2)cc1 | -1.8 | -0.9 | -18.2 | x | 0.3% | -0.5
O=C(CCC(=O)c1ccc(Oc2ccccc2)cc1)Nc1cccc(Cl)c1Cl | 0.8 | 2.2 | 8.0 | -4.6 | 2.1% | -9.5
CC(C)c1nnc(NC(=O)c2cnccn2)s1 | -3.3 | 1.5 | -17.0 | -4.8 | 2.1% | 16.6
Cc1cc(C)c(S(=O)(=O)c2ccccc2)c(OC(=O)c2cc(F)c(F)cc2Cl)n1 | -4.7 | -0.3 | -1.7 | 23.7 | 2.0% | 7.4
CC(=O)c1[nH]c(C)c(C(=O)N2CCCC(Nc3ccc(C(C)C)cc3)C2)c1C (stereo unspecified) | 3.7 | 0.0 | -1.0 | 18.3 | 1.0% | 4.6
CCC(CC)C(=O)NCCc1ccc(S(N)(=O)=O)cc1 | -1.5 | -0.2 | 1.9 | -12.1 | x | -2.7
O=C(CCN1CCOCC1)NNC(=S)NC(=O)c1ccccc1 | -7.4 | -1.0 | -3.1 | -0.2 | 5.1% | 6.5
O=C(NCCS(=O)(=O)N1CCN(c2ccccc2)CC1)C1CCCC1 | -1.2 | 1.4 | 10.5 | 0.0 | 1.7% | -7.0
C[C@H]1CN([C@@H](C)CO)C(=O)c2cc(NC(=O)C3CCCCC3)ccc2O[C@H]1CN(C)Cc1ccc(-c2ccccc2)cc1 | -0.2 | 0.7 | -12.4 | -8.6 | 4.5% | 6.8
CCSc1nc2c([nH]c3ccccc32)c(=O)n1CC | x | 2.1 | x | x | 3.0% | 11.1
Cc1cc(-c2nnc(SCC(=O)Nc3ccc(F)c(F)c3)n2N)n[nH]1 | -3.6 | -0.7 | 0.0 | -3.1 | 6.6% | 24.7
O=C(NCc1cccnc1)c1ccc(-c2cc(Cl)ccc2Cl)o1 | -5.7 | 1.5 | -1.0 | -6.1 | -0.8% | -4.6
COCCNc1ccc(N2C(=O)CCCC2=O)cc1[N+](=O)[O-] | -9.4 | -0.3 | 3.2 | -6.9 | 1.1% | 22.3
Cc1cccn2c(Nc3ccccc3)c(-c3ccccn3)nc12 | -2.7 | 0.2 | -22.4 | -14.8 | 5.3% | 3.6
COc1ccccc1OCC(=O)N1CCCC(Nc2ccc(C)c(C)c2)C1 (stereo unspecified) | -2.3 | 0.5 | -4.9 | -7.5 | -1.8% | 10.0
Cc1ccc(Oc2ccc(NC(=O)C3=CC=CN4CCS(=O)(=O)N=C34)cc2)cc1 | -1.9 | 0.2 | -2.2 | 0.1 | 8.3% | -7.2
COCCNC(=O)Cn1nc(-c2ccc(Cl)cc2)c2ccccc2c1=O | -2.6 | -0.1 | 7.1 | -2.9 | 2.3% | 3.3
COC(=O)c1ccc(S(=O)(=O)NCc2ccccc2)n1C | -10.2 | 1.3 | -0.3 | -1.3 | -1.4% | 12.8
Nc1cc2c(cc1Cl)N(Cc1ccccc1)C(=O)CO2 | 0.7 | 2.1 | -6.6 | -1.6 | 1.9% | -1.9
CSc1ccc(C(c2c(C(=O)O)[nH]c3ccccc23)c2c(C(=O)O)[nH]c3ccccc23)cc1 | -3.2 | 1.2 | -11.2 | -0.3 | 4.2% | 29.0
Nc1ccccc1Nc1cccc(C(F)(F)F)c1 | 1.4 | 2.6 | -9.7 | 2.2 | -1.2% | 25.8
Cc1cc(C(=O)Nc2cccc(NC(=O)c3ccco3)c2)ccc1[N+](=O)[O-] | -2.6 | -0.5 | -7.0 | 16.1 | -1.0% | -3.0
C[C@@H]1CN([C@@H](C)CO)C(=O)CCCn2nncc2CO[C@@H]1CN(C)S(=O)(=O)c1ccc(-n2cccn2)cc1 | -2.2 | 0.6 | 3.2 | 7.4 | -1.7% | -3.2
Cc1ccc(-n2ncc3c2CC(C)(C)CC3NC(=O)c2c(C)noc2C)cc1 (stereo unspecified) | -0.5 | 1.2 | 20.6 | -6.3 | 2.8% | 19.8
COc1ccccc1C(=O)NC(=Nc1nc2ccccc2o1)NC(=O)c1ccccc1OC | 0.3 | -0.6 | -10.3 | -3.4 | u | -2.2
COc1ccccc1NC(=O)C(C)OC(=O)c1ccc(-n2cnnn2)cc1 (stereo unspecified) | 0.2 | 1.3 | 1.6 | -1.6 | -0.8% | -6.2
CCOC(=O)N1CCN(C(=S)NC(=O)c2ccc(F)cc2)CC1 | -1.3 | 0.5 | 3.1 | -7.2 | 1.0% | 14.0
O=c1c2oc3ccccc3c2n(Cc2ccc(F)cc2)c(=O)n1Cc1ccco1 | x | 1.8 | x | x | -1.2% | 4.6
O=C(COC(=O)c1cccc(C(F)(F)F)c1)NCc1ccccc1 | -2.1 | -0.4 | 0.1 | -7.3 | 0.0% | -16.9
CC(C)(C)c1nn(-c2ccccc2)c2[nH]c(=O)c(CNCc3ccc4c(c3)OCO4)cc12 | -1.0 | 2.3 | -6.4 | -10.9 | x | 20.1
Cc1ccc([N+](=O)[O-])cc1NC(=S)NC(=O)c1cccs1 | 0.4 | 0.7 | 8.9 | -9.2 | -0.5% | 28.9
COc1ccc(CCNC(=O)C(C)n2nc(C)c3sc4ccccc4c3c2=O)cc1OC (stereo unspecified) | x | 0.8 | x | x | 4.3% | 7.7
COc1ccc(CNC(NC(=O)c2ccccc2)(C(F)(F)F)C(F)(F)F)cc1 | 1.9 | 1.6 | 2.0 | -3.0 | 7.5% | 11.3
COc1ccc(CNC(=O)Cn2nc(C)c3c(C)n(-c4ccc(C)cc4)nc3c2=O)cc1OC | 0.2 | -1.0 | -0.3 | -5.4 | -1.5% | -11.9

Rewritten with each value named: entries from further up.
Nc1ccccc1Nc1cccc(C(F)(F)F)c1
  D2 ag: 1.4
  TRPML1 ag: 2.6
  Six1-Eya2 blk: -9.7
  D2 potentiator: 2.2
  PINK1 modulator: -1.2%
  TRPML1 inh: 25.8
COc1ccc(CNC(=O)Cn2nc(C)c3c(C)n(-c4ccc(C)cc4)nc3c2=O)cc1OC
  D2 ag: 0.2
  TRPML1 ag: -1.0
  Six1-Eya2 blk: -0.3
  D2 potentiator: -5.4
  PINK1 modulator: -1.5%
  TRPML1 inh: -11.9

Part of the list above, reformatted.
> COc1ccccc1NC(=O)C(C)OC(=O)c1ccc(-n2cnnn2)cc1 (stereo unspecified)
  D2 ag = 0.2
  TRPML1 ag = 1.3
  Six1-Eya2 blk = 1.6
  D2 potentiator = -1.6
  PINK1 modulator = -0.8%
  TRPML1 inh = -6.2

> CCOC(=O)N1CCN(C(=S)NC(=O)c2ccc(F)cc2)CC1
  D2 ag = -1.3
  TRPML1 ag = 0.5
  Six1-Eya2 blk = 3.1
  D2 potentiator = -7.2
  PINK1 modulator = 1.0%
  TRPML1 inh = 14.0

From PubChem BioAssay
